Assay outcomes as filed in PubChem.
TRPML1 inh: blocks the human TRPML1 channel; activity change, negative = inhibition, % (no concentration beside the values); Q9GZU1; TRPML1-inducible cells, Ca2+ dye fluorescence, FDSS; hits give low values; inhibition of EC80 agonist-evoked calcium signal; actives 0.02% (n = 390,000); in the data active means activity change below about -50%; inconclusive means about -30% to -50%; inactive means above about -30%;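 note: stimulus is agonist 54-4 at its EC80 concentration; % is set by controls: 0 for no effect and ±100 for the full control effect; compound concentration not given in the record; the text of the record puts the active cut at -80%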
Target sequence (Q9GZU1 whole entry, looked up): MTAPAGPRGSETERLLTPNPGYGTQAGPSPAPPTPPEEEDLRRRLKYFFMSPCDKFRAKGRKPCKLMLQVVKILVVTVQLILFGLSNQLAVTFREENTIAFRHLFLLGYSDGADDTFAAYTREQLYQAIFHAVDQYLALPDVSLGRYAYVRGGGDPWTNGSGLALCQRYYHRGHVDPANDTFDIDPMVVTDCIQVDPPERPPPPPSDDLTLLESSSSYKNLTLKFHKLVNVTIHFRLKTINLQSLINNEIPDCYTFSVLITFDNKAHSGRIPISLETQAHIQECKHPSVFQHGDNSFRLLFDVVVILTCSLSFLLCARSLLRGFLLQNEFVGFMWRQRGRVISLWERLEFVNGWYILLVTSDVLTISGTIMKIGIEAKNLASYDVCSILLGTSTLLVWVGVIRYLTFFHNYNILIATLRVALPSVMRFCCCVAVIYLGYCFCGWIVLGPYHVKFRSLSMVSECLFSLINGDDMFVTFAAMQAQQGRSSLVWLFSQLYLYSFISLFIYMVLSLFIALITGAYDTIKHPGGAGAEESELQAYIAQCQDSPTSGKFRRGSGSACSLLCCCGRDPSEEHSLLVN
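Calcium fluorescence in TRPML1-DL cells induced overnight with Tet: a 110 s read after compound pin addition, then a 110 s antagonist read after challenge with 54-4 at 4 uM final (EC80).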
CtBP-E1A inh: blocks the CtBP interaction with E1A. actives 0.49% (n = 340,000). activity change, % (test concentration not listed). AlphaScreen GST-E1A/His-CtBP binding, 1536-well; hits give low values; control for the full effect not named in the record. AID 651724; in the data active means activity change below about -65%; inconclusive means about -30% to -65%; inactive means above about -30%; note: % is set by controls: 0 for no effect and ±100 for the full control effect; compound concentration not given in the record
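Homogeneous bead-based format: GST-tagged E1A captured on glutathione donor beads, His-tagged CtBP on nickel acceptor beads; compounds precede bead addition by 2 h at 37 °C.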
D2 ag: agonists of human D2 dopamine receptor (beta-arrestin); AID 624465; P14416; activation, % (concentration not given with the values); DiscoveRx PathHunter D2 beta-arrestin, luminescence, 90 min; 100% = 57 uM dopamine signal; actives 0.084% (n = 360,000); in the data active = activation above about 40%; inconclusive = about 15% to 40%; inactive = below about 15%; note: compound concentration not given in the record; the text of the record calls up to 30% inactive
Target sequence (P14416 whole entry, looked up): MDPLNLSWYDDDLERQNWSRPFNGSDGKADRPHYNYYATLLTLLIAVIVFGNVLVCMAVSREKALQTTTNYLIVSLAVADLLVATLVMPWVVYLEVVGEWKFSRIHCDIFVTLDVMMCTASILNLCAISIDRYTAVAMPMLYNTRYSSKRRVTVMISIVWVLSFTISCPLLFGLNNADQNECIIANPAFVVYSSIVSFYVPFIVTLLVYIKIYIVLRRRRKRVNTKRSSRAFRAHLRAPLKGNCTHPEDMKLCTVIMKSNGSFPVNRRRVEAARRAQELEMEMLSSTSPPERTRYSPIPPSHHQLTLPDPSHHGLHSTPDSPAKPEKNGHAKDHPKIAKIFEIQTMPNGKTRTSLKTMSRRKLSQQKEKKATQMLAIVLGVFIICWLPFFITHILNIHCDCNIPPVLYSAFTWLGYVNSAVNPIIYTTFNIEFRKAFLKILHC
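Agonist mode: compounds alone added to overnight-plated D2 PathHunter cells for 90 min at 37 C, with 57 uM final dopamine (EC100) defining full response. Beta-arrestin recruitment detected by chemiluminescent reagent, read after 1 h at ambient temperature.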
Six1-Eya2 inh: Six1/Eya2 interaction inhibition | actives 0.56% (n = 360,000) | AlphaScreen GST-Six1/His-Eya2 binding, biochemical; hits give low values; control for the full effect not named in the record | Q15475+O00167 | activity change, % (no concentration beside the values); in the data active = activity change below about -65%; inconclusive = about -30% to -65%; inactive = above about -30%; note: % is set by controls: 0 for no effect and ±100 for the full control effect; compound concentration not given in the record
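Homogeneous AlphaScreen proximity assay pairing GST-Six1 with His-tagged Eya2 (added as 5X mix: 250 nM and 500 nM) in 50 mM Tris pH 8.0, 300 mM NaCl, 1 mM TCEP. Glutathione donor and nickel acceptor beads; 1 h, 37 °C, dark.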
TRPML1 ag: agonists of human TRPML1 channel. actives 0.12% (n = 410,000). TRPML1-expressing cells, Ca2+ dye fluorescence, FDSS; host cell line not named in the record; reference of the full effect not given here. Q9GZU1. AID 624414. activation, % (test concentration not listed); in the data active = activation above about 50%; inconclusive = about 30% to 50%; inactive = below about 30%; note: 0% is about no effect; the text of the record puts the active cut at 80%
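In this qHTS format, compounds were pin-transferred onto Ca8-dye-loaded TRPML1-DL cells induced with Tet overnight, and intracellular Ca2+ fluorescence was recorded kinetically for 110 s after a 10 s baseline. A subsequent 4uM final 54-4 (EC80) addition followed by a second 110 s read served as the antagonist phase.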
PINK1 modulator: PINK1 expression modulation | PINK1 immunofluorescence, high-content cytometry, 24 h | Potency, µM (doses to about 76.6 µM), without a hit: top-dose activation (PINK1 increase), most hits filed as activators | actives 0.2% (n = 410,000) | AID 624263; active = well fitted activation curve with a large enough effect; inconclusive = small, poorly fitted or top-dose-only effect; inactive = flat fitted curve, though single readings scatter; cell line not stated here;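 note: potency is the fitted concentration of half-maximal effect; % of control where 0% means no effect; nearly all actives have a fitted effect of over 65% in size; a mitochondrial uncoupler was the plate control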
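Stable cell line, 250 cells/well, 12 h attachment; compounds pinned at 5 concentrations, 24 h; CCCP control. Fixed with nuclear dye, primary antibodies 12 h at 10 degrees C, secondary plus cell stain; laser-scanning cytometer read.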
An asterisk follows results filed as active; ? = inconclusive; . = not tested or not shown; & = joins results of further samples; [ ] = remark or other dose. The order is random; 1% or so of the library scored in one or more.

SMILES	TRPML1 inh	CtBP-E1A inh	D2 ag	Six1-Eya2 inh	TRPML1 ag	PINK1 modulator
COC(=O)C1=NN(c2ccc(C)cc2)C2C(=O)N(c3ccccc3OC)C(=O)C12 (configuration not stated)	-9	8	-5.2	3	-0.2	3.3%
Cc1ccn2c(CNCCCn3cccn3)c(C(=O)N3CCCCCC3)nc2c1	5	-7	-1.2	-2	0.1	0.3%
COc1ccccc1N1CCN(S(=O)(=O)CCNC(=O)COc2ccccc2)CC1	-6	-2	-0.1	-4	-1.1	1.0%
Cc1c(C)n(CC(O)CN2C(=O)c3ccccc3S2(=O)=O)c2ccccc12 (configuration not stated)	6	-7	-6.4	-17	0.2	0.5%
CCC(=O)C1CCCN(C(=O)c2ccc(OC3CCN(C(=O)CCOC)CC3)cc2)C1 (configuration not stated)	-7	18	1.7	1	-0.5	3.1%
C/C(=N\Nc1ccc(C(F)(F)F)cn1)c1ccc(S(=O)(=O)NCc2ccco2)cc1	-8	6	0.8	2	1.5	1.4%
OC(c1cccc(F)c1)c1ncc(-c2ccc3ccccc3c2)[nH]1 (configuration not stated)	.	-25	-2.0	-7	-0.5	2.5%
Cc1ccc(N(CC(=O)Nc2c(C)cccc2C)S(C)(=O)=O)cc1	14	-2	-3.7	-1	0.2	-0.5%
COc1ccc(N2CCN(c3oc(COc4ccccc4)nc3C#N)CC2)cc1	50	?	1.1	?	0.6	-2.6%
COc1cc(NS(=O)(=O)c2ccc(NC(=O)/C=C/C(=O)O)cc2)nc(OC)n1	10	-5	3.9	2	0.9	-0.9%
CC(C)=CC(=O)NCCc1ccccc1	-20	-12	-1.7	-3	-0.4	-4.7%[38.3 µM]
CN(C(=O)c1cc2n(n1)C(C(F)(F)F)CC(c1ccco1)N2)c1ccccc1 (configuration not stated)	4	4	-2.2	11	-1.2	-0.5%
NC(=O)c1c(N)sc2c1CCCCC2	-10	-8	5.5	-7	-0.5	1.1%
O=[N+]([O-])CC(c1ccccc1)c1c[nH]c2ccccc12 (configuration not stated)	-2	.	2.1	6	1.5	4.0%
CN1/C(=C\C(=O)COC(=O)c2ccccc2O)C(C)(C)c2ccccc21	0	8	3.0	4	-0.2	-0.7%
COc1ccc(S(=O)(=O)c2nnn(-c3ccccc3Cl)c2N)cc1	-2	4	0.7	0	0.1	0.7%
O=C(CN(Cc1cccs1)C(=O)CSc1nnc(COc2ccccc2)o1)NC1CCCC1	1	12	-2.0	3	0.7	-5.2%[38.3 µM]
CCc1ccc(-c2cc3c(=O)n(CC(=O)NCCCN4CCN(Cc5ccccc5)CC4)nc(C)n3n2)cc1	0	.	-27	-5	0.3	-1.1%
Cc1ccc(C2(C)NC(=O)N(CC(=O)N(Cc3ccccc3)C(C)(C)C)C2=O)cc1 (configuration not stated)	-15	-4	-2.1	0	-0.7	-2.8%
COc1ccccc1C(CNC(=O)C(C)(C)Oc1ccc(Cl)cc1)N1CCCC1 (configuration not stated)	15	-19	-3.2	-4	-0.1	-2.0%
COc1ccc(-c2nc(-c3ccccc3)nc(N3CCN(C)CC3)c2C#N)cc1	-12	1	-1.4	-1	0.3	2.3%
Cc1ccc(OCc2nnc(SCC(=O)O)n2-c2ccccc2)cc1	3	8	0.2	-8	0.1	0.2%
COc1ccc(C)cc1NC(=O)c1cc(S(=O)(=O)N2CCCCC2)c[nH]1	-23	.	.	.	-0.9	2.3%
Cc1nn(C)c(C(=O)N/N=C/c2ccc(C(F)(F)F)cc2)c1[N+](=O)[O-]	-21	0	-5.4	7	-0.5	8.6%
C[C@H](CO)N1C[C@H](C)[C@@H](CN(C)Cc2ccc3c(c2)OCO3)Oc2c(NS(C)(=O)=O)cccc2C1=O	17	0	1.3	3	-0.7	-0.7%
COc1ccccc1NC(=O)c1c(C)cc(C)nc1SCC(=O)Nc1ccc(C)c(C)c1	38	.	.	.	2.5	-1.2%
C#CCNC(=O)C1=C[C@H](c2ccc3c(c2)OCO3)[C@@H](CCCO)[C@H](OCC)O1	21	2	3.6	13	0.1	0.2%
C/C(=C\c1ccco1)C1C(C#N)=C(N)Oc2n[nH]c(-c3ccccc3)c21 (configuration not stated)	-9	-9	-0.4	-8	0.6	7.6%
COc1cc([N+](=O)[O-])ccc1-c1ccc(/C=N\n2cnnc2)o1	32	.	-0.2	-1	1.1	-1.4%
Cc1nc(OCc2ccccc2)c2ccccc2n1	-2	5	-3.6	2	-0.6	9.3%
Cc1ccc(C)c(CSc2ncccc2C(=O)O)c1	34	17	-4.0	8	-0.7	5.4%
O=C(CSc1nnc(COc2ccccc2)o1)N1CCOCC1	-11	4	-1.4	4	-0.4	0.6%
O=C(CN1C(=O)C(=O)N(C2CCCC2)C1=O)NCCc1ccc(Cl)cc1Cl	0	-15	6.7	-5	1.5	1.3%
CCOc1ccc(NC(=O)c2cccs2)c([N+](=O)[O-])c1	2	-2	-0.9	-2	0.2	1.8%
CCOC(=O)CNC(=O)CSc1nnc(Cn2cnc3ccccc32)n1C	9	2	0.8	4	-0.4	3.1%
C[C@@H]1CC2[C@@H]3CC[C@H]4CC(=O)CC[C@]4(C)C3=CC[C@]2(C)[C@@]1(O)C(=O)CO (some centres not stated)	26	5	-1.1	-4	-1.2	1.0%
Oc1c(C(c2ccccn2)N2CCC(Cc3ccccc3)CC2)cc(Cl)c2cccnc12 (configuration not stated)	-15	-68*	-18	-88*	-0.1	-1.3%
CC(C)CC1C(=O)N(Cc2cn(Cc3ccco3)nn2)CCS(=O)(=O)N1Cc1ccc(-c2ccc(F)cc2)cc1 (configuration not stated)	-4	-12	-4.9	-6	0.7	1.2%
COc1cc2c(cc1OC)[C@H](C)N(C(=O)NCc1ccccc1)CC2	-14	3	-4.4	-18	0.4	4.4%
COc1ccccc1N1CCN(C(=O)Cn2ncc3c(=O)oc4ccc(C)cc4c32)CC1	-2	.	.	.	-1.0	-1.0%

Ordered by value in D2 ag (low to high): 3 of the compounds above
SMILES,D2 ag
Oc1c(C(c2ccccn2)N2CCC(Cc3ccccc3)CC2)cc(Cl)c2cccnc12 (configuration not stated),-18
Cc1ccc(C)c(CSc2ncccc2C(=O)O)c1,-4.0
CCOC(=O)CNC(=O)CSc1nnc(Cn2cnc3ccccc32)n1C,0.8

The listing continues:
SMILES	TRPML1 inh	CtBP-E1A inh	D2 ag	Six1-Eya2 inh	TRPML1 ag	PINK1 modulator
NC(=S)N/N=C/c1cc([N+](=O)[O-])ccc1OCCOc1ccccc1	-7	2	4.1	4	2.3	11%
COc1ccccc1NC(=O)CN1CCCCC1	-1	16	-4.2	3	0.5	-1.5%
COC(=O)C1(C(C[N+](=O)[O-])c2ccco2)C(=O)NCC1c1ccccc1 (configuration not stated)	28	6	-3.9	2	1.8	5.6%
O=C(Nc1cc(C(F)(F)F)ccc1Cl)c1cc(-c2ccc3c(c2)OCCO3)on1	-3	.	.	.	-0.4	0.0%
Cc1ccc(-n2cc(-c3ccccc3)c3c(NN4CCOCC4)ncnc32)cc1	37	23	-9.7	-3	0.7	-4.9%
CC(C)OC(=O)c1nnc(Cc2ccc(F)cc2)o1	9	6	-4.9	9	-0.1	1.5%
O=C(CN1C(=O)C2CCCCC2C1=O)Nc1nccs1 (configuration not stated)	-15	6	-0.7	0	0.6	0.2%
CC(C)N1CCCC(C)(C(=O)Nc2cccc(Oc3ccccc3)c2)C1 (configuration not stated)	.	-12	-2.3	8	-0.8	1.1%
C(=N\Nc1nc(N2CCCC2)nc(N2CCCC2)n1)/c1ccncc1	1	-13	1.3	8	0.1	0.4%
CCCc1cc(=O)oc2c(C)c(OCC(=O)NCCN3CCOCC3)ccc12	-6	-5	-3.0	-8	-0.4	-0.7%
CCOC(=O)c1cc(/C(C)=N/OC(=O)c2ccc(C(C)(C)C)cc2)on1	-10	.	-2.4	6	0.4	2.5%
O=C(NCCN=C1NS(=O)(=O)c2ccccc21)c1ccc2nccnc2c1	-12	-15	0.6	-15	1.2	0.1%
CCN1CCN(C(c2cccs2)C(C)NS(=O)(=O)c2ccc(C)cc2)CC1 (configuration not stated)	3	.	2.0	15	0.3	-0.7%
Cn1ccc2c(-c3ccc4[nH]ccc4c3)cc3c(c21)C1CCC3O1 (configuration not stated)	.	-17	-3.5	-22	-0.8	9.2%
O=C(Cc1ccccn1)c1ccc(O)cc1O	7	.	-0.9	1	1.5	2.3%
Cc1ccc(C)c(Oc2c(C(F)(F)F)oc3c(CN4CCN(C)CC4)c(O)ccc3c2=O)c1	12	.	.	.	-0.8	0.9%
Cc1ccc(-n2ncc3c(SCC(N)=O)ncnc32)cc1C	25	23	-0.2	26	0.2	2.6%
COc1ccccc1C(=O)NCCCNC(=O)c1cnccn1	-13	-28	6.1	-5	0.3	0.8%
O=C(Cc1ccc(Br)cc1)Nc1ccc2[nH]ncc2c1	16	-3	0.9	-11	0.3	16%
CCCNS(=O)(=O)c1ccc(N2CCCC2=O)c([N+](=O)[O-])c1	0	8	1.5	1	-0.1	-1.5%
O=C(OC1CCCCC1=O)c1cc(=O)c2ccccc2o1 (configuration not stated)	14	3	0.6	0	-0.4	0.4%
COc1cccc(-c2ncnn2-c2sc3c(c2C#N)CCCCC3)c1OC	-12	.	.	.	-0.9	2.1%
N/C(=N\OC(=O)CCC(=O)O)c1ncc(C(F)(F)F)cc1Cl	-16	3	-2.2	-2	-0.6	1.3%
Cn1c(=O)[nH]c(=O)c2c1nc(CN1CCN(c3cccc(Cl)c3)CC1)n2Cc1ccccc1Cl	7	5	1.6	-6	-0.8	9.1%
COc1ccc(CNC(=O)Cc2c(C(=O)O)c(C)cn2C)cc1	-18	.	.	.	-0.8	0.1%
NCCCCNCCCN	9	5	-3.4	1	-0.2	0.0%&0.0%
O=C(CNc1cc(S(=O)(=O)N2CCOCC2)ccc1N1CCCC1)Nc1ccc(Cl)cc1	-5	-7	-1.1	-13	0.7	0.6%
CC(NC(=O)CCCCCCN1C(=O)c2ccccc2C1=O)c1ccc2c(c1)CCCC2 (configuration not stated)	0	2	4.0	-4	2.3	1.0%
COc1ccc(Br)cc1CNC(=O)Cn1ncn2nc(-c3cccs3)cc2c1=O	-10	.	.	.	0.4	-1.1%
Cc1nn(CCC#N)c(N)c1C1(O)C(=O)Nc2c(Cl)cc(Cl)cc21 (configuration not stated)	-12	-2	-9.1	3	-0.9	14%
O=C1NC[C@@H](CCCCN2C[C@H](Cc3ccccc3)N(CC3CCCCC3)C(=O)C2=O)N(CCc2ccc(O)cc2)C1=O	.	-2	.	-18	-0.6	0.2%
COc1cccc(C=Nc2ccccc2C(=O)Nc2nccs2)c1OC	18	20	0.2	39	0.0	-2.7%
O=C(O)CCNC(=O)/C(=C/c1ccco1)NC(=O)c1ccco1	12	.	-0.2	-2	-0.3	-0.2%
